TRPML1 agonist – qHTS for Agonists of the Human Mucolipin Transient Receptor Potential 1 (TRPML1); activation, % (no concentration beside the values); TRPML1-expressing cells, Ca2+ dye fluorescence, FDSS; host cell line not named in the record; reference of the full effect not given here; actives 0.12% (n = 410,000); Mucolipin-1 (Homo sapiens), Q9GZU1; AID 624414, 2012; in the data active = activation above about 50%; inconclusive = about 30% to 50%; inactive = below about 30%; further: 0% is about no effect; the text of the record puts the active cut at 80%
Target sequence (Q9GZU1 whole entry, looked up): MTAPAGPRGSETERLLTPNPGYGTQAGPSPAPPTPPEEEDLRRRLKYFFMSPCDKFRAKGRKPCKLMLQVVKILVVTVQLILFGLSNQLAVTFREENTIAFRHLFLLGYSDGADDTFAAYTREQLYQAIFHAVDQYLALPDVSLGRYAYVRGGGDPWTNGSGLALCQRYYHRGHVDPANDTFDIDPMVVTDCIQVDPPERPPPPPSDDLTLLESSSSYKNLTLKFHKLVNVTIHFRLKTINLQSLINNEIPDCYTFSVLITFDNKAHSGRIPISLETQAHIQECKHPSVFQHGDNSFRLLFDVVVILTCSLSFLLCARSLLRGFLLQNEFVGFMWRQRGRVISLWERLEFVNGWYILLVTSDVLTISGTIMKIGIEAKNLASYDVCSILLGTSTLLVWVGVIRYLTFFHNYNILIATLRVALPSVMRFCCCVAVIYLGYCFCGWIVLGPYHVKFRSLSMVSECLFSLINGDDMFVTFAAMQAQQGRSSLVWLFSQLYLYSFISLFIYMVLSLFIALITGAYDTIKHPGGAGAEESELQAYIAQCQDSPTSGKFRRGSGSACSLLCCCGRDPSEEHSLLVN
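TRPML1-DL cells, Tet-induced overnight (~16 h, 37 degrees C), loaded 45-90 min at room temperature with Ca8 no-wash calcium dye plus quencher. FDSS fluorescence: 10 s baseline, compound pin-transfer, 110 s agonist read, then EC80 54-4 (4uM final) and 110 s antagonist read.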
PINK1 expr mod – A Quantitative High throughput Screen to Identify Chemical Modulators of PINK1 Expression | actives 0.2% (n = 410,000) | Potency, µM (titrated, usually from 76.6 µM), for inactives: at the top dose activation (PINK1 increase), hits mostly activators | PINK1 immunofluorescence, high-content cytometry, 24 h | AID 624263, 2012; active = well fitted activation curve with a large enough effect; inconclusive = small, poorly fitted or top-dose-only effect; inactive = flat fitted curve, though single readings scatter; cell line not stated here;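 further: potency means the concentration at half of the fitted maximal effect; % of control where 0% means no effect; nearly all actives have a fitted effect of over 65% in size; a mitochondrial uncoupler was the plate control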
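Cells are seeded, rested 12 hours, then given compound at five concentrations or DMSO for 24 hours. After fixation, blocking and antibody staining, PINK1 amount and mitochondrial localization are scored; CCCP serves as control.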
The depositor's hits bear a star; ? = inconclusive.

SMILES	TRPML1 agonist	PINK1 expr mod
COc1ccc(-c2nsc(NC(=O)c3oc4ccccc4c3C)n2)cc1	2.4	-0.9%
COc1ccc(C(=O)Nc2ccc(-c3cc4ccccc4oc3=O)c(C)c2)cc1Br	1.0	-0.1%
CCCN1CNc2c(c(=O)[nH]c(=S)n2CCc2c(C)cccc2C)C1	-0.7	-0.3%
COc1ccc(/C=C(\C)C(=O)NO)cc1	0.2	1.0%
Cc1cccc(N2CCN(c3ccc(C(=O)O)cc3NC(=O)c3cccc(Cl)c3)CC2C)c1 (stereo not drawn)	-0.8	0.0%
CN1CCN(C2(CNC(=O)c3ccc(C(C)(C)C)cc3)CCCCC2)CC1	1.3	-0.6%
Cc1ccccc1C(=O)OCc1cc(=O)n2nc(C3CCCCC3)sc2n1	-0.9	1.4%
Cc1ccc(NC(=O)Nc2cn(C)c(=O)c3ccccc23)c(Cl)c1	-0.5	7.0%
CN(C(=O)c1ccc2c(c1)N(Cc1cccc(Cl)c1)C(=O)c1ccccc1S2(=O)=O)C1CCCCC1	0.4	1.5%
Cc1ccccc1NC(=O)c1ccc(F)c(S(=O)(=O)N(C)C2CCCCC2)c1	2.6	0.2%
CCOc1ccc(N(CC)C(=O)c2cc3c(=O)oc4ccccc4c3s2)cc1	0.4	0.2%
O=C(O)COc1ccccc1C1Nc2ccccc2-c2nnc(SCc3ccc(Cl)cc3)nc2O1 (stereo not drawn)	0.6	1.3%
Cc1c(C(=O)NCc2ccc(F)cc2)oc2ccc(S(=O)(=O)N3CCCCC3)cc12	-0.1	-0.2%
CCc1ccccc1NC(=O)CSc1ncc2c(n1)-c1ccccc1N(Cc1ccc(C)cc1)S2(=O)=O	1.7	5.8%
CCOc1ccccc1C(=O)NC1(C(F)(F)F)NC(=O)N(CCc2ccc(OC)c(OC)c2)C1=O (stereo not drawn)	3.1	14.3%
CN(C)S(=O)(=O)c1ccc(C(=O)NC2CC(=O)N(c3ccc4c(c3)OCCO4)C2)cc1 (stereo not drawn)	0.2	-0.1%
COc1ccc2c(c1)c(=O)c(S(=O)(=O)c1ccc(C)c(C)c1)cn2CC(=O)Nc1ccccc1	0.2	1.8%
CC(C)Cc1ccc(S(=O)(=O)Nc2cc3c(cc2N2CCOCC2)n(C)c(=O)c(=O)n3C)cc1	0.2	-0.7%
COc1ccc(-c2cc3nc(C)c(CCC(=O)N4CCN(c5ccccc5)CC4)c(C)n3n2)c(OC)c1	-1.2	0.3%
Cc1ccc(CNC(=O)Cn2c(-c3cccs3)cc3cc(Cl)ccc32)cc1	0.5	0.6%
COc1ccc(-c2noc(N3CCC(C(=O)N4CCN(c5ccccc5F)CC4)CC3)n2)cc1	-0.2	-0.5%
CCN(Cc1ccccc1)S(=O)(=O)c1ccc2[nH]c3c(c2c1)CCCCC3	3.1	?
CCOc1ccc(Nc2ncnc3c2nc2n3CCCCC2)cc1	-1.4	1.1%
Cc1ccc(NC(=O)C2CCN(c3nnc(-n4cccc4)s3)CC2)cc1Cl	-0.1	0.7%
O=C1CC(c2ccc(F)cc2)c2c(c3ccccc3[nH]c2=O)O1 (stereo not drawn)	1.7	5.3%
Continuation:
SMILES	TRPML1 agonist	PINK1 expr mod
Cc1cc(C)c2c(n1)SCCN2C(=O)Nc1ccc(C(=O)Nc2cc(Cl)ccc2C)cc1	0.5	-0.3%
O=C(Nc1nnc(S(=O)(=O)N2CCc3ccccc32)s1)c1ccccc1Cl	3.8	0.1%
CCc1cccc(NC(=O)c2cnc(N3CCOCC3)c3ccccc23)c1	1.2	4.3%
COc1cc(-c2noc(-c3ccc(NCc4cccnc4)c([N+](=O)[O-])c3)n2)cc(OC)c1OC	-0.5	10.4%
Cc1ccc(-n2ncc(C(=O)NCc3ccc4c(c3)OCO4)c2C2CCN(C(=O)OC(C)(C)C)CC2)cc1C	0.8	0.3%
CCc1ccc(CN(Cc2ccco2)C(=O)COc2ccccc2Cl)cc1	5.8	-0.3%
COc1cccc(C(=O)c2cn(CC(=O)Nc3cccc(C)c3C)c3nc(C)ccc3c2=O)c1	0.9	3.5%
Cc1ccc(-c2c(C(=O)Nc3ccccc3F)oc(=O)c3ccccc23)cc1	-0.2	0.1%
Cc1nc(NC(=O)c2c(-c3ccccc3)c(-c3ccccc3)nn(C)c2=O)sc1C	1.5	0.0%
Cc1cccc(OCc2ccc(-c3nc(C#N)c(NCc4cccnc4)o3)o2)c1	0.0	2.2%
CCc1cccc(C)c1NS(=O)(=O)c1ccc2c(c1)NC(=O)C(C)C(=O)N2 (stereo not drawn)	0.1	-0.1%
Cc1ccc(-c2cc(NC(=O)c3ccccc3Cl)on2)cc1	-0.5	4.0%
Cc1ccc(-n2c(=O)c3oc4ccccc4c3n(Cc3ccccc3)c2=O)cc1C	2.0	1.1%
COc1ccc(N2CC(NC(=O)c3ccc(S(=O)(=O)N4CCOCC4)cc3)CC2=O)cc1OC (stereo not drawn)	0.8	1.1%
CCOC(=O)c1ccc2c(c1)N(CC(=O)N(C)c1ccccc1)C(=O)c1ccccc1S2	3.3	-1.1%
CC(C)c1ccc(NC(=O)Cn2nnc(C(=O)NCCc3ccccc3)c2N)cc1	1.9	9.2%
CCc1ccccc1NC(=O)CC(c1ccc(F)cc1)N1Cc2ccccc2C1=O (stereo not drawn)	1.6	2.0%
O=C(Cn1c(=O)ccc2cc(S(=O)(=O)N3CCCC3)ccc21)NCc1ccc(F)cc1	0.8	-2.5%
O=S(=O)(Nc1cccc(C(F)(F)F)c1)c1ccc(-c2cnc(C3CC3)o2)cc1	-0.9	?
CCN(CCCNC(=O)CSc1cc(=O)n(CC)c2ccccc12)c1ccccc1	1.8	0.8%
Cc1ccc(-n2ncc3c(N4CCC(C)CC4)ncnc32)cc1C	-0.8	0.8%
CCOc1ccc(C(c2c(O)cc(C)n(Cc3ccco3)c2=O)N2CCN(C)CC2)cc1 (stereo not drawn)	-0.3	0.3%
Cc1cc(C(=O)C(=O)Nc2nnc(C(C)C)s2)c(C)n1-c1ccccc1	1.3	1.4%
CCN1c2ccccc2-c2nc(SCC(=O)NCc3ccc(Cl)cc3)ncc2S1(=O)=O	1.0	6.9%
CCOc1ccccc1Nc1sc(C(=O)c2ccc(Cl)cc2)c(N)c1S(=O)(=O)c1ccccc1	-0.2	2.1%
(list continues)
SMILES	TRPML1 agonist	PINK1 expr mod
Cc1ccc(C)c(N2CCN(C(=O)c3cc4c(=O)oc5ccccc5c4s3)CC2)c1	-0.4	0.5%
CC(=O)c1cccc(NC(=O)c2c(C)nn(-c3ccc(F)cc3)c2-n2cccc2)c1	3.6	0.7%
O=S(=O)(Nc1cccc2cccnc12)c1cccc2cccnc12	0.9	-0.6%
COC(=O)C1=C(c2ccccc2)c2ccccc2S(=O)(=O)N1CC(=O)Nc1ccc(F)c(F)c1	1.7	0.7%
N#CC1=C(N)CCC1	-0.4	5.9%
COc1ccccc1CNC(=O)c1cc2sccc2n1Cc1ccc(Cl)cc1	0.3	6.9%
Cc1ccc2nc(-c3ccc(Cl)c(NC(=O)c4cccc([N+](=O)[O-])c4C)c3)oc2c1	0.1	6.2%
Cc1ccc(NC(=O)Nc2cn(CC(C)C)c(=O)c3ccccc23)cc1N(C)C	2.4	-3.5%
CCn1cc(C(=O)N2CCN(c3cccc(Cl)c3)CC2)c(=O)c2cc(S(=O)(=O)N3CCC(C)CC3)ccc21	-1.0	0.6%
CCN(CCCNC(=O)c1nn(-c2ccc(OC)c(Cl)c2)c(=O)c2c1c1ccccc1n2C)c1ccccc1	-0.8	1.6%
COC(=O)c1cnn(-c2ccc(C(=O)Nc3cccc(C(C)=O)c3)cc2)c1N	1.1	0.1%
CSc1ccc(CCNC(=O)CN2C(=O)c3cccnc3Oc3ccc(Cl)cc32)cc1	2.5	0.1%
COc1ccc(/C=C/c2ccccn2)cc1OC	-0.8	1.6%
COc1ccc(C(=O)c2cn(Cc3ccc(F)cc3)c3c(F)cc(F)cc3c2=O)cc1	2.7	-0.3%
Cc1oc(-c2ccccc2Cl)nc1CSc1nncn2c1cc1occc12	0.3	1.8%
Cc1cccc(-c2noc(CNC(=O)c3ccc(C)cc3C)n2)c1	3.6	1.5%
O=C(Nc1cccc(C(F)(F)F)c1)C1CCCN1S(=O)(=O)c1cccc2nsnc12 (stereo not drawn)	-0.9	-0.2%
COc1cccc(NS(=O)(=O)c2cc3c4c(c2)C(C)C(=O)N4CCC3)c1 (stereo not drawn)	-0.3	0.6%
Cc1ccccc1OCC(=O)Nc1ccc2nc(SCC(=O)N(C)c3ccccc3)sc2c1	1.6	0.2%
Cc1ccc(C)c(N2CCN(c3c(CN4CCCC4)c(=O)oc4ccccc34)CC2)c1	-0.5	0.9%
CC(=O)N1CCCC1c1nc2ccccc2n1Cc1ccccc1Cl (stereo not drawn)	-1.0	-0.4%
CCc1ccc(OCC(=O)Nc2ccc3c(c2)c2ccccc2n3CC)cc1	-0.3	1.1%
Cc1ccc(Cl)cc1N1CCN(CCCNC(=O)c2nnc(Cc3cccc(Cl)c3)o2)CC1	0.9	0.3%
COC(=O)c1ccc(Cl)cc1NC(=O)Nc1nnc(N(C)C2CCCCC2)s1	2.2	2.7%
Cc1cc(NC(=O)CCS(=O)(=O)c2cc3c4c(c2)CCN4C(=O)CC3)ccc1Br	-1.3	1.4%

Record cards (already shown). Order of values: TRPML1 agonist	PINK1 expr mod
CCc1ccc(OCC(=O)Nc2ccc3c(c2)c2ccccc2n3CC)cc1 as listed: -0.3	1.1%
COc1ccc(C(=O)c2cn(Cc3ccc(F)cc3)c3c(F)cc(F)cc3c2=O)cc1 as listed: 2.7	-0.3%
Cc1oc(-c2ccccc2Cl)nc1CSc1nncn2c1cc1occc12 as listed: 0.3	1.8%
O=S(=O)(Nc1cccc2cccnc12)c1cccc2cccnc12 as listed: 0.9	-0.6%
CC(=O)N1CCCC1c1nc2ccccc2n1Cc1ccccc1Cl (stereo not drawn) as listed: -1.0	-0.4%

Some of the entries above, set out differently:
COc1ccc(C(=O)c2cn(Cc3ccc(F)cc3)c3c(F)cc(F)cc3c2=O)cc1
  TRPML1 agonist = 2.7	PINK1 expr mod = -0.3%

Cc1oc(-c2ccccc2Cl)nc1CSc1nncn2c1cc1occc12
  TRPML1 agonist = 0.3	PINK1 expr mod = 1.8%

Cc1cccc(-c2noc(CNC(=O)c3ccc(C)cc3C)n2)c1
  TRPML1 agonist = 3.6	PINK1 expr mod = 1.5%

Following part:
SMILES	TRPML1 agonist	PINK1 expr mod
CC1CCCCN1Cc1nc2c(c(=O)n(C)c(=O)n2C)n1Cc1ccc(Br)cc1 (stereo not drawn)	-0.5	1.4%
CCOC(=O)CSc1nc2ccc(NC(=O)COc3ccccc3)cc2s1	0.3	1.8%
O=C(CSc1nc2c(c(=O)[nH]1)CN(Cc1ccc3c(c1)OCO3)CC2)Nc1ccc(F)c(F)c1	-1.4	0.7%
CCc1cnc2c(c1SCc1ccccc1C)c(=O)n(C)c(=O)n2C	0.2	-0.7%
Cc1nn(C)c2c1c(-c1ccccc1)cc(=O)n2Cc1ccc(Cl)cc1	3.4	1.6%
O=C(NCc1ccccc1Cl)c1nnc(Cc2cccc(F)c2)o1	-0.3	3.7%
COc1cc2c(=O)c(C(=O)c3ccc(C)c(C)c3)cn(Cc3ccc(F)cc3)c2cc1OC	1.4	1.4%
CCOc1ccc(C(=O)Nc2cccc(NC(=O)c3ccc(C(C)(C)C)cc3)c2)cc1Br	1.5	4.0%
COc1ccc(Cl)cc1NC(=O)CSc1nc2ccccc2nc1N1CCCCC1	0.6	1.0%
Cc1ccc(-n2ncc3c(NCCCN4CCOCC4)ncnc32)cc1C	1.6	-0.1%
O=C(Cn1ncc2c([nH]c3ccccc32)c1=O)Nc1cc(F)ccc1F	1.7	1.3%
O=C(CSc1nc(-c2cccs2)nc2cc(=O)[nH]n12)Nc1ccccc1Cl	-1.0	0.6%
CCOC(=O)c1cccc(NC(=O)c2oc3c(c2C)-c2nn(CC)cc2CC3)c1	3.2	0.1%
O=C(NCc1ccccc1)c1ccc2nc(CCc3ccccc3)oc2c1	3.2	6.4%
CCc1c(C)c2ccc(O)c(CN3CCN(c4ccc(OC)cc4)CC3)c2oc1=O	-1.4	1.7%
CCOC(=O)c1c(C)[nH]c(C)c1S(=O)(=O)N1CCC(C(=O)N2CCN(c3ccc(F)cc3)CC2)CC1	-0.4	2.5%
O=C(Nc1ccc(F)c(Cl)c1)N1CCC(CN2CCOCC2)CC1	2.4	0.9%
COc1ccc(CNC(=O)c2ccc(CS(=O)Cc3ccccc3Cl)o2)cc1 (stereo not drawn)	0.1	1.2%
Cc1nnc(N2CCCC(C(=O)NCCN(C)C)C2)c2nn(-c3ccccc3)c(C)c12 (stereo not drawn)	-0.2	-0.3%
O=C(Nc1ccccc1F)C(Cc1ccccc1)N1Cc2ccccc2C1=O (stereo not drawn)	2.5	?
CCOc1ccccc1CNC(=O)c1cc2n(n1)CCCN(Cc1ccc(C)cc1)C2=O	3.8	-2.2%
CCN1CCC(N(Cc2cccc(OC)c2)C(=O)Nc2cccc(C(F)(F)F)c2)CC1	0.8	6.0%
Cc1cc(Nc2ccccc2F)n2nc(-c3ccccc3)nc2n1	0.6	3.4%

Assay outcomes (PubChem)

Not all compounds are listed. The share of hits here may be higher or lower than overall.
